Compound activity (PubChem BioAssay)
Arbovirus inh: antivirals against arbovirus infection | hit rate 0.37% among 200,000 | AID 1251 | inhibition, % at 10 µM | arbovirus infection cell-based antiviral screen;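 active = inhibition from about 30%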;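 note: bluetongue infection of BSR cells; cell survival read as ATP light after 72 h; 0% = infected wells without compound and 100% = uninfected wells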
Mtb H37Rv: M. tuberculosis H37Rv growth inhibitors, H37Rv strain (AID 1626). M. tuberculosis H37Rv growth inhibition; higher % means a stronger effect. one-dose inhibition, % at 10 µM; IC50 in µM for titrated hits. hit rate 0.95% among 220,000;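 active = confirmed in a dose series; inconclusive = inhibition above 80% but not taken into the dose series; inactive = below 80% or under 30% at every dose of the series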;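 note: bacteria incubated seven days before Alamar blue readout; 0% = bacteria only wells and 100% = bacteria with antibiotic wells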
YopH inh: YopH (Yersinia) phosphatase inhibition | fluorescence Ex485/Em525 | inhibition, %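 (about 10 µM by stock and volumes)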 | hit rate 0.16% among 140,000;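 active = inhibition of 50% or more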;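 note: controls were vehicle for no effect and minimum signal wells for full effect; inactives centre near -20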
RecA splice inh: inhibitors of M. tuberculosis RecA intein splicing | P9WHJ3 | cell-free RecA intein splicing, fluorescence | inhibition, %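 (about 9 µM by stock and volumes)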 | hit rate 0.75% among 290,000 | AID 2221; in the data active = inhibition above about 30%; inconclusive = no clear call, values can overlap the other calls;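 note: 0% = vehicle wells and 100% = reference inhibitor control wells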
Target sequence (P9WHJ3 whole entry, looked up, canonical isoform): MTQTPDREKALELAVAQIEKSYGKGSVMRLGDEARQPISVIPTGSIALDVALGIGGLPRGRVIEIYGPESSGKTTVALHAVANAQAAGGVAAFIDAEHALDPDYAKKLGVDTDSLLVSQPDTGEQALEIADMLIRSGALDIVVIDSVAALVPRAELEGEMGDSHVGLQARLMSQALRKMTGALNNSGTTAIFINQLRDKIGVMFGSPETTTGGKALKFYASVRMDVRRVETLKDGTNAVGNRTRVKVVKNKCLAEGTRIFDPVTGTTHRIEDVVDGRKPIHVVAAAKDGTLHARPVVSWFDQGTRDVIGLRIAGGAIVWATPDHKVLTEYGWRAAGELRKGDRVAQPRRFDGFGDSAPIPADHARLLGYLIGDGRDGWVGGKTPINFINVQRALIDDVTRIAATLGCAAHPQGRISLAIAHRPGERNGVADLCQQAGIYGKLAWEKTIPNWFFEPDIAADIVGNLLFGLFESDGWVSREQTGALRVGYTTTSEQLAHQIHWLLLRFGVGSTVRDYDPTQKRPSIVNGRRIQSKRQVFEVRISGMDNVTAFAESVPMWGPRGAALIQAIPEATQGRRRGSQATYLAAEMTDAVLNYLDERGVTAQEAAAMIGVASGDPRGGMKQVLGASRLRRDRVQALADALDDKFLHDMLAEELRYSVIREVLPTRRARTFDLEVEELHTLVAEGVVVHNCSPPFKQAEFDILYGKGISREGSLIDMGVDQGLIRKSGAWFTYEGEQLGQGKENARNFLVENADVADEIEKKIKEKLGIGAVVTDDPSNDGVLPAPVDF
Mtb betalactam: beta-lactam sensitization of Mtb H37Rv | M. tuberculosis H37Rv growth with meropenem, percent inhibition; hits of this screen are not shown here | inhibition, % at 25 µM | hit rate 0.27% among 330,000 | AID 434955;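 active = about 74% or more and at least 40 points above the plate without the antibiotic, then above 30% in a dose series; inconclusive = first-round hits that could not be retested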;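 note: growth measured after seven days incubation then overnight dye step; 0% = bacteria only wells and 100% = bacteria with antibiotic; twin plates without the antibiotic show which effects depend on it; some results filed as inactive read as strong as hits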
Arbovirus inh repeat: recorded beside Arbovirus inh, whose call it bears; inhibition, %; measured here: 10K subset replicate screen; many hits read low in the repeat;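 first of two repeat runs on a subset; 0% = infected and 100% = uninfected wells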
* hit, by the source's call. Some of the compounds tested (hit frequency here may not be typical).

For Cc1nc(-c2cccnc2)sc1C(=O)Nc1ccc(C(F)(F)F)cc1 the results were Arbovirus inh 7, Mtb H37Rv 9%, YopH inh -25, RecA splice inh -1.7 and Mtb betalactam 93.
`O=C(c1cc(S(=O)(=O)N2CCOCC2)ccc1F)N(Cc1nnc(-c2ccccc2Cl)o1)C1CC1` gave RecA splice inh 6.6 and Mtb betalactam -3.
For Cc1nc([N+](=O)[O-])cn1CC(=O)c1ccc(Br)cc1 the results were RecA splice inh -1.3 and Mtb betalactam 4.
Nc1cc(OC(=O)c2ccc(F)cc2)nn1S(=O)(=O)c1ccccc1 was read as RecA splice inh 0.3 and Mtb betalactam -2.
For N#C/C(=C(/O)c1cccs1)c1nc2ccccc2[nH]1 the results were Mtb H37Rv 6%, RecA splice inh -24 and Mtb betalactam inconclusive.
For COC(=O)CCCC1=CC2=CC(=O)C(C)(OC(=O)c3cccs3)C(=O)C2=CN1c1cccc(C#N)c1 (stereo not given) the results were Mtb H37Rv 10%, RecA splice inh -6.4 and Mtb betalactam 0.
COc1ccc(S(=O)(=O)N2CCN(CC(=O)Nc3cc(C(F)(F)F)ccc3Cl)CC2)cc1 was read as Arbovirus inh -6, Mtb H37Rv 0%, YopH inh -27, RecA splice inh 0.6 and Mtb betalactam 5.
`CC(=O)NC1(C(F)(F)F)N=C2SCCN2C1=O` (stereo not given) gave Arbovirus inh 1, Mtb H37Rv -3%, YopH inh 13, RecA splice inh 1.6 and Mtb betalactam -16.
For CN1CCN(C(=O)c2ccc3c(c2)N(Cc2ccc(F)cc2)C(=O)c2ccccc2S3=O)CC1 (stereo not given) the results were RecA splice inh 0.9 and Mtb betalactam 1.
`CC1CCCCC1NC(=O)c1cncc(Br)c1` (stereo not given) gave Arbovirus inh 4, Mtb H37Rv -21%, YopH inh -16, RecA splice inh -0.7 and Mtb betalactam -15.
For CCc1ccccc1NC(=O)CSc1nc2n[nH]c(C)c2c(=N)n1-c1ccc(OC)cc1 the results were Arbovirus inh 12, Mtb H37Rv 8% and YopH inh -18.
Cc1ccc(/C=C/C(=O)NCCCN2CCN(CCCNC(=O)/C=C/c3ccc(C)o3)CC2)o1 was read as Arbovirus inh 6, Mtb H37Rv 5%, YopH inh -14, RecA splice inh 0.3 and Mtb betalactam -2.
`CC(N=Cc1c(O)[nH]c(=O)[nH]c1=O)c1ccccc1` (stereo not given) gave Arbovirus inh -8, Mtb H37Rv -1%, YopH inh -43, RecA splice inh -2.0 and Mtb betalactam 5.
Screening CCCCc1nc(SCC(=O)N2CCOCC2)c2c(=O)n(C)c(=O)n(C)c2n1 returned RecA splice inh -2.2 and Mtb betalactam -8.
For CCOC(=O)CSc1nc2c(cnn2-c2ccc(Cl)cc2)c(=O)[nH]1 the results were RecA splice inh 0.7 and Mtb betalactam 1.
Screening O=C(NCC1CCCO1)c1cc2c(s1)CS(=O)(=O)C2 (stereo not given) returned Arbovirus inh 7, Mtb H37Rv -14%, YopH inh -25, RecA splice inh -0.4 and Mtb betalactam -7.
CN(C)C(=S)SCC(=O)NC(=O)NC(C)(C)C was read as Arbovirus inh 8, Mtb H37Rv -10%, RecA splice inh 1.6 and Mtb betalactam -2.
`CSc1nc(SC)c2c3c(oc2n1)COC(C)(C)C3` gave Arbovirus inh -2, YopH inh -39, RecA splice inh 3.3 and Mtb betalactam inconclusive.
`CC(=O)c1cc(-c2ccccc2)n(CC(=O)NC2CCCCC2)c1C` gave Arbovirus inh 14, Mtb H37Rv 5%, RecA splice inh 2.6 and Mtb betalactam 0.
For Cn1c(Cn2nnc3ccccc32)nnc1SCC(=O)N1c2ccccc2Sc2ccccc21 the results were Arbovirus inh 5, Mtb H37Rv 0%, YopH inh 31, RecA splice inh -1.4 and Mtb betalactam 2.
Screening Cc1cccc(NC(=O)c2ccc(OCC(=O)NCc3ccccc3)cc2)c1C returned Arbovirus inh -16, Mtb H37Rv -3%, YopH inh -31, RecA splice inh -2.0 and Mtb betalactam -3.
O=C(NC1CCN(Cc2ccccc2)C1)c1cc(COc2ccc(F)cc2F)on1 (stereo not given) was read as Arbovirus inh -20, Mtb H37Rv 4%, RecA splice inh 2.5 and Mtb betalactam -4.
COc1ccc(NS(=O)(=O)c2cccc(C(=O)NC3CCN(Cc4ccccc4)CC3)c2)cc1 was read as RecA splice inh 0.5 and Mtb betalactam -2.
`CCCNC(=O)COC(=O)c1ccc(S(=O)(=O)N2CCCC2)cc1` gave Arbovirus inh 25, Mtb H37Rv -5%, RecA splice inh 1.4 and Mtb betalactam 3.
Screening O=C(c1ccc([N+](=O)[O-])cc1)N1CCOC12CCN(c1ncc(C(F)(F)F)cc1Cl)CC2 returned Arbovirus inh 0, Mtb H37Rv -20%, YopH inh 8, RecA splice inh 0.3 and Mtb betalactam -6.
For COC(=O)CSc1nc(NCc2ccccc2)nc(N(C)C)n1 the results were Arbovirus inh 4, Mtb H37Rv -1%, RecA splice inh -1.6 and Mtb betalactam -2.
COc1ccc(Cl)cc1NC(=S)N1CCN(C(=O)c2ccco2)CC1 was read as Arbovirus inh 1, Mtb H37Rv 4%, YopH inh -23, RecA splice inh 0.2 and Mtb betalactam -12.
For COC(=O)/C=C/c1ccc2c(c1)S(=O)(=O)N(Cc1ccc(OC)cc1)[C@H]2CC(=O)OC the results were Mtb H37Rv 3%, RecA splice inh 0.7 and Mtb betalactam 47.
O=C(O)c1cc(C(=O)C2CC2)c[nH]1 was read as Arbovirus inh 5, Mtb H37Rv -5%, RecA splice inh -0.6 and Mtb betalactam -4.
Screening O=C(O)CC(NC(=O)/C(=C/c1ccccc1)NC(=O)c1ccccc1)c1ccccc1 (stereo not given) returned RecA splice inh -1.7 and Mtb betalactam -7.

Not a retest: entries from further up.
Screening O=C(c1ccc([N+](=O)[O-])cc1)N1CCOC12CCN(c1ncc(C(F)(F)F)cc1Cl)CC2 returned Arbovirus inh 0, Mtb H37Rv -20%, YopH inh 8, RecA splice inh 0.3 and Mtb betalactam -6.
For COC(=O)CSc1nc(NCc2ccccc2)nc(N(C)C)n1 the results were Arbovirus inh 4, Mtb H37Rv -1%, RecA splice inh -1.6 and Mtb betalactam -2.
COc1ccc(Cl)cc1NC(=S)N1CCN(C(=O)c2ccco2)CC1 was read as Arbovirus inh 1, Mtb H37Rv 4%, YopH inh -23, RecA splice inh 0.2 and Mtb betalactam -12.
For COC(=O)/C=C/c1ccc2c(c1)S(=O)(=O)N(Cc1ccc(OC)cc1)[C@H]2CC(=O)OC the results were Mtb H37Rv 3%, RecA splice inh 0.7 and Mtb betalactam 47.
O=C(O)c1cc(C(=O)C2CC2)c[nH]1 was read as Arbovirus inh 5, Mtb H37Rv -5%, RecA splice inh -0.6 and Mtb betalactam -4.
Screening O=C(O)CC(NC(=O)/C(=C/c1ccccc1)NC(=O)c1ccccc1)c1ccccc1 (stereo not given) returned RecA splice inh -1.7 and Mtb betalactam -7.

Continuation:
Cc1cccc(N(CC(=O)NCCc2ccccc2)C(=O)CCC(=O)Nc2ccccn2)c1C was read as RecA splice inh -1.0 and Mtb betalactam -5.
COC(=O)C1CCN(Cc2cn(Cc3ccccc3)nc2-c2cc3ccccc3o2)CC1 was read as Arbovirus inh 17, Mtb H37Rv 3%, RecA splice inh 4.4 and Mtb betalactam 6.
CC(C)CCSc1nc2[nH]ncc2c(=O)[nH]1 was read as Arbovirus inh -14, Mtb H37Rv -4%, RecA splice inh -0.7 and Mtb betalactam -6.
Screening COc1cccc(C(c2sc3ncnn3c2O)N2CCN(C(=O)c3ccco3)CC2)c1 (stereo not given) returned Arbovirus inh 1, Mtb H37Rv -5%, YopH inh -24, RecA splice inh 0.0, Mtb betalactam -4 and Arbovirus inh repeat 2.
For CC(C)C(c1nnnn1C1CCCCC1)N1CCc2ccccc2C1 (stereo not given) the results were Arbovirus inh 1, Mtb H37Rv 6%, YopH inh -20, RecA splice inh -0.2 and Mtb betalactam 10.
Screening CC(=O)c1cccc(S(=O)(=O)NC2CCSc3ccccc32)c1 (stereo not given) returned RecA splice inh 0.7 and Mtb betalactam 5.
`O=C(Nc1cc(Sc2nc3ccccc3s2)cc([N+](=O)[O-])c1)c1ccccc1F` gave Arbovirus inh -9, Mtb H37Rv 9%, YopH inh -36, RecA splice inh 0.5 and Mtb betalactam -9.
For CC(=O)c1ccc(OCc2cc(C(=O)N3CCOCC3)no2)cc1 the results were RecA splice inh 2.9 and Mtb betalactam -4.
`COC(=O)/C(=C/c1ccc(OC)cc1)NC(=O)c1ccco1` gave Arbovirus inh 5, Mtb H37Rv 6%, YopH inh -32, RecA splice inh -1.4 and Mtb betalactam -3.
CCC(=NCCN1CCCCC1)c1c(O)n(C)c(=O)n(C)c1=O was read as Arbovirus inh 0, Mtb H37Rv 6%, YopH inh 39, RecA splice inh 0.1 and Mtb betalactam -8.
Cc1ccc(-c2csc3nc(C)n(N)c(=O)c23)o1 was read as Arbovirus inh 0, Mtb H37Rv -3%, YopH inh -11, RecA splice inh -2.8 and Mtb betalactam -5.
COc1ccc(NS(=O)(=O)c2cc(-c3cnc(C4CC4)o3)ccc2C)cc1 was read as RecA splice inh -1.4 and Mtb betalactam 3.
Screening OCCCc1ccc(O)c(O)c1 returned Arbovirus inh 0, Mtb H37Rv -8%, RecA splice inh -5.7 and Mtb betalactam -2.
`Cc1ccc(N=Cc2ccc[nH]2)c(O)c1` gave Arbovirus inh -9, Mtb H37Rv -3%, YopH inh 48, RecA splice inh 16, Mtb betalactam 8 and Arbovirus inh repeat -3.
Screening COC(=O)c1c(C)oc(C)c1S(=O)(=O)NC(C)(C)C returned Mtb H37Rv -6%, RecA splice inh -19 and Mtb betalactam -3.
Screening O=c1c2c(-c3ccc([N+](=O)[O-])cc3)csc2nc2n1CCC2 returned Arbovirus inh -5, Mtb H37Rv 9%, YopH inh -74, RecA splice inh -2.6 and Mtb betalactam 98.
For CC(C)c1ccc(NC(=O)Cc2cn(C)c3ccccc23)cc1 the results were Arbovirus inh 3, Mtb H37Rv 10%, RecA splice inh -0.4 and Mtb betalactam -5.
Screening CC(=O)Nc1ccccc1Oc1ccccc1 returned Arbovirus inh -3, Mtb H37Rv 5%, RecA splice inh 13 and Mtb betalactam 7.
O=C(CN1CCOCC1)Nc1nc2ccc(F)cc2s1 was read as Arbovirus inh 8, Mtb H37Rv -7%, YopH inh -22, RecA splice inh -1.9 and Mtb betalactam -11.
For Cc1cccc(NC(=O)COC(=O)Cc2c[nH]c3ccccc23)c1C the results were Arbovirus inh -2, Mtb H37Rv 8%, YopH inh -36, RecA splice inh 0.3 and Mtb betalactam 2.
Screening COc1ccc(-c2noc(CN3CCC(Cc4ccccc4)CC3)n2)cc1 returned Arbovirus inh 6, Mtb H37Rv -6%, YopH inh 33, RecA splice inh 17 and Mtb betalactam 26.
`CN(Cc1ccccc1Cl)C(=O)c1cnccc1C(F)(F)F` gave Mtb H37Rv -4%, RecA splice inh -2.1 and Mtb betalactam -2.
For O=C(CN1CCOCC1)N1N=C(c2cccs2)CC1c1cccs1 (stereo not given) the results were Arbovirus inh -7, Mtb H37Rv -5%, RecA splice inh 2.4 and Mtb betalactam -13.
Screening CCc1nnc(NC(=O)CSc2nc(N)c(NC(=O)c3ccc(OC)cc3)c(=O)[nH]2)s1 returned RecA splice inh -3.2 and Mtb betalactam -20.
For COc1cccc(CN2CCC(n3nccc3NC(=O)CCCc3ccccc3)CC2)c1O the results were RecA splice inh -1.9 and Mtb betalactam 5.
For COc1ccc(CCNS(=O)(=O)c2ccc3c(c2)NC(=O)CS3)cc1OC the results were RecA splice inh -2.0 and Mtb betalactam -2.
For CCCCOc1ccc(C(=O)NCC(=O)N2CCN(Cc3ccc4c(c3)OCO4)CC2)cc1 the results were RecA splice inh 1.0 and Mtb betalactam 9.
`CCn1nnc(NC(=O)c2ccc(Br)o2)n1` gave RecA splice inh -1.6 and Mtb betalactam 1.
Screening CCO[C@@H]1OC(C(=O)N2CCN(Cc3ccc4c(c3)OCO4)CC2)=C[C@H](c2coc3ccccc3c2=O)[C@H]1CCCO returned Arbovirus inh -10, Mtb H37Rv 2%, RecA splice inh 2.5 and Mtb betalactam 5.
Cn1c(CCNC(=O)c2ccco2)nc2cc(NC(=O)c3ccccc3)ccc21 was read as RecA splice inh 0.5 and Mtb betalactam 4.
For O=C(COC(=O)c1nc(Cl)ccc1Cl)NC(=O)c1ccccc1 the results were RecA splice inh -0.7 and Mtb betalactam -5.
`COc1cc(C(=S)N2CCOCC2)cc(OC)c1OC(=O)Cc1ccc(F)cc1` gave Arbovirus inh 1, Mtb H37Rv 4%, YopH inh -13, RecA splice inh -1.5 and Mtb betalactam 7.
Screening CCCc1c(O)nc(SCCN(CC)CC)[nH]c1=O returned Arbovirus inh 5, Mtb H37Rv -2%, YopH inh -20, RecA splice inh 1.1 and Mtb betalactam -1.
